Source: PubChem
eIF4H inh – inhibitors of RNA binding by human eIF4H; Q15056; eIF4H fluorescence polarization binding assay; inhibition, % at 35 µM; 0.94% of 290,000 active; AID 2012;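 active = 50% or more with normal probe brightness, or confirmed in later tests; inconclusive = above 50% with abnormal brightness, or retests that disagree; inactive = below 50% or failed in later tests; about a fifth of its hits are not listed in these tables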;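 also: calls also rest on retests at 20 µM and on dose response follow-up; 0% = protein and probe with vehicle and 100% = probe without protein; strong numbers were not always called active; many hits fall short of the cut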
Rce1 inh – inhibitors of yeast Ras-converting enzyme; AID 2563; Q03530; calls only; 0.27% of 290,000 active; yeast membranes, quenched prenylated peptide cleavage fluorescence;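 active = fall in fluorescence gain of 50% or more versus controls, with final raw signal at or below 3038400; inconclusive = same 50% fall but final raw signal above 3038400; inactive = fall in fluorescence gain under 50%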;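 also: plate controls were neutral control wells for no effect and wells lacking membranes for full effect; tested at 10 µM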
Target sequence (Q03530 whole entry, looked up): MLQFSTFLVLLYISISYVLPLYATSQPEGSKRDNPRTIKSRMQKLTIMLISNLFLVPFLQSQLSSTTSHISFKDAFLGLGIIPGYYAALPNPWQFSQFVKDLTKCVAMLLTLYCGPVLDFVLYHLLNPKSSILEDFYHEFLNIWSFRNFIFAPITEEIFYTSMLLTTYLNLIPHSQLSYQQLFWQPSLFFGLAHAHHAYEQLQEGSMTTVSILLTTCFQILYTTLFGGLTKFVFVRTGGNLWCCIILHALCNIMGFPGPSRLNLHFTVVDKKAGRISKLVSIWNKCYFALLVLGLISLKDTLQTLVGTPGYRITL
HIV Env fusion – inhibitors of HIV Env-mediated cell fusion | AID 651610 | HeLa-JRFL Env/CEM21 cell fusion, luciferase | inhibition, % at 12.3 µM | 1.1% of 360,000 active;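 active = mean replicate inhibition score of at least 50 and every replicate individually at or above 50; inconclusive = only one of the two criteria met; inactive = mean below 50 and not all replicates reaching 50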;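 also: 0% = plate neutral controls and 100% = maraviroc near 300 nM; one replicate is shown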
MT1-MMP act inh – inhibitors of human MT1-MMP activation | P50281 | HT1080 RFP-PRO-GFP cells, GFP/RFP ratio fluorescence, overnight; percent of plate control window, DMSO zero | GFP/RFP ratio change, % at 20 µM | 0.061% of 360,000 active | AID 651647;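 active = GFP/RFP ratio change of at least 30% with cell ATP level not reduced by more than half and red fluorescence within 50% of control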; also: strong numbers were not always called active
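Material – HT1080 RFP-PRO-GFP cells · Control set – DMSO wells and RFP-L50D-GFP cells · Incubation – overnight cell settling, then overnight compound exposure, 37 °C, 5% CO2 · Compound dosing – single-point 20 µM compound, 1% DMSO · Read-out – GFP/RFP fluorescence ratio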
PABP FP inh – PABP-poly(A) binding inhibition. P11940. PABP-poly(A) RNA binding, fluorescence polarization. inhibition, % at 35 µM. 1% of 290,000 active. AID 2014;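 active = 50% or more with normal probe brightness, or confirmed in later tests; inconclusive = above 50% with abnormal brightness, or retests that disagree; inactive = below 50% or failed in later tests; about a fifth of its hits are not listed in these tables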;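 also: calls also rest on retests at 20 µM and on dose response follow-up; controls were probe without protein and protein plus probe with vehicle; some compounds called inactive have numbers as strong as hits; many hits fall short of the cut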
Target sequence (P11940 whole entry, looked up): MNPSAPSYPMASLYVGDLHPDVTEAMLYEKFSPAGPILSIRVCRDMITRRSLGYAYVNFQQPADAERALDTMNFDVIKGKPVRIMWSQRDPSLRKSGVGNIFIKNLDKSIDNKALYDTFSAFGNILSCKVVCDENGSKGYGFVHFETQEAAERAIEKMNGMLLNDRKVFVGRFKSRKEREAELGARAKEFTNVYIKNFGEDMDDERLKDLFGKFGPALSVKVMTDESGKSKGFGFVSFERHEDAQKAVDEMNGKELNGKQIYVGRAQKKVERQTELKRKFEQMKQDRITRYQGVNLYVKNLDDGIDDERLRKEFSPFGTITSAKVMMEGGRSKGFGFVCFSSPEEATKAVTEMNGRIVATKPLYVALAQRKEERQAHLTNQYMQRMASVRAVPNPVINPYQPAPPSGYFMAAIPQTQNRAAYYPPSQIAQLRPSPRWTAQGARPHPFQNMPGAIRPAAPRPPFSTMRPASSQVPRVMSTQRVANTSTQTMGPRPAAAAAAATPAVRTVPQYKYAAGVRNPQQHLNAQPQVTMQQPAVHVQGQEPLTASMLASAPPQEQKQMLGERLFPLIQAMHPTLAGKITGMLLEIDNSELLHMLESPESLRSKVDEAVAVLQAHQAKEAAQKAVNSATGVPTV
CSC inhib – cancer stem cell inhibition; cancer stem cell-like cells viability, luminescence; inhibition, % at 7.5 µM; 1.1% of 300,000 active; AID 2717;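 active = mean at 75% or more and at least half the replicates too; inconclusive = mean and replicates disagree; tested in HMLE shEcad cells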;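 also: 0% = median of negative and 100% = median of positive control wells; the first replicate is given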
Yeast UUG start – alters start codon recognition fidelity in yeast. 0.13% of 350,000 active. activity score, % at 18.7 µM. S. cerevisiae UUG-firefly luciferase reporter, luminescence/redox ratio;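 active = replicate mean at a twofold rise or more, about +100% in these data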;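 also: firefly luciferase made from a UUG start codon reports start codon fidelity; reporter light over untreated wells divided by growth signal over untreated wells; some hits fall short of that in this replicate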
eIF4H inh retest – also measured in eIF4H inh; calls as there; inhibition, %; compound at 20 µM; confirmation average;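 mean of two retest wells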
PABP FP inh retest – second read-out of PABP FP inh, no call of its own (marks repeat the call); inhibition, %; compound at 20 µM; confirmation repeats;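 mean of two retest wells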
MT1-MMP act inh RFP – also measured in MT1-MMP act inh; calls as there; RFP signal change, %; measured here: RFP expression control read;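 0 = vehicle wells; hits needed this value within 50% of zero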
* hit, by the source's call; i = inactive; ? = inconclusive; · = not tested or not shown; & = joins results of further samples.

SMILES	eIF4H inh	Rce1 inh	HIV Env fusion	MT1-MMP act inh	MT1-MMP act inh RFP	PABP FP inh	CSC inhib	Yeast UUG start	others
Nc1c(C(=O)c2ccc(Cl)cc2)sc2nc3c(cc12)CCC3	-6	i	-10	-8	1	-6	16	10
CC(NC(=O)COc1ccc(S(=O)(=O)N2CCCC2)cc1)c1ccccc1 (stereo unspecified)	-4	i	3	4	3	1	-6	16
O=C(NCC(=O)N(c1ccccc1)C(C(=O)NCC1CCCO1)c1ccccc1)c1ccco1 (stereo unspecified)	-5	i	-6	-7	-10	-6	12	2
CCn1c(SC(C)C(=O)O)nnc1-c1cccnc1 (stereo unspecified)	-1	i	6	0	1	61	-12	-19	eIF4H inh retest=-8;PABP FP inh retest=11
Cc1cc(C)n2nc(CCCCc3nc4nc(C)cc(C)n4n3)nc2n1	-1	i	·	·	·	5	-3	·
CCN1CCN(CC(=O)N2c3ccccc3Sc3ccccc32)CC1	5	i	3	4	1	1	-12	-13
C[C@@H]1CN([C@@H](C)CO)C(=O)CCCn2nncc2CO[C@H]1CN(C)S(=O)(=O)c1ccc(-c2ccccc2)cc1	·	·	-14	-1	-3	·	·	-6&13
O=C1CC(c2ccco2)Cc2nc(N3CCc4ccccc4C3)ncc21 (stereo unspecified)	22	i	·	2	1	24	14	·
COc1ccc(CNc2nnnn2C)c(OC)c1	-8	i	4	-2	-1	6	-10	-12
Cc1nn(Cc2ccccc2)c(C)c1NC(=O)c1cc(-c2ccco2)on1	-7	i	0	0	2	-4	5	-6
CC(OC(=O)Cc1coc2ccc3ccccc3c12)C(=O)NC(N)=O (stereo unspecified)	9	i	-3	-5	-1	4	8	·
COc1cc(C2C(C#N)=C(N)Oc3cc(C)oc(=O)c32)ccc1OC(=O)N1CCOCC1 (stereo unspecified)	2	i	-17	-6	4	1	-3	-4
O=[N+]([O-])c1ccc(Nc2ccccc2)c2nonc12	-20	i	-8	-35	-6	-16	-4	-14
CCOC(=O)C1=C(O)CCn2c1nc1ccccc12	4	i	·	11	9	-2	-3	-14
CCOC(=O)C1CCN(C(=O)CCNC(=O)c2cc(OC)c(OC)c(OC)c2)CC1	-6	i	-138	1	4	-4	6	1
COC(=O)c1ccc(/C=N/N2CCN(Cc3ccccc3)CC2)cc1	2	i	·	3	5	2	-5	·
O=C(N/N=C/c1cc2c(cc1Cl)OCO2)c1ccccn1	·	i	·	4	2	·	13	·
CNC(=O)Nc1cc(NC(=O)NC)cc(C(F)(F)F)c1	-2	i	-12	1	-4	3	-8	-10
COc1ccccc1/C=C(/C(=O)OCC(=O)N(C)Cc1ccccc1)c1ccccc1	-12	i	8	-2	-6	-8	-5	·
Cc1cc(C(=O)CSc2nnnn2C)c(C)n1CCc1ccc(F)cc1	25	i	-41	7	2	29	-5	-3
CCS(=O)(=O)N1CCC(C(=O)Oc2ccccc2OC)CC1	-11	i	-2	1	4	-4	-26	-4
CC(C)(C)NC(=O)CSc1nnc(NC(=O)c2ccccc2Cl)s1	3	·	1	1	-1	6	2	·
CC1CCC(NC(=O)CSc2nnnn2C)CC1 (stereo unspecified)	·	·	-4	0	4	·	-8	-14
O=C(NCc1ccc(OC(F)(F)F)cc1)C1CC(c2c(Cl)cccc2Cl)=NO1 (stereo unspecified)	2	i	3	1	0	4	30	-24
COc1ccc(NC(=O)[C@@H]2CC=C[C@@H]3CCN(C4CCCCC4)C(=O)[C@@H]32)cc1	·	i	-49	0	2	·	-10	3
NC(=O)Cn1c(=O)n(C2CCCCC2)c(=O)c2c3c(sc21)CCCCC3	6	i	7	-6	-8	-4	-8	·
COC(=O)c1ccccc1NC(=O)CCS(=O)(=O)c1cc2c(cc1C)NC(=O)CO2	12	i	-73	0	-2	7	4	-16
CCOc1ccc(C2C(C#N)=C(N)Oc3n[nH]c(C)c32)cc1OC(=O)C1CC1 (stereo unspecified)	-2	i	5	-4	-1	0	0	-8
O=C(O)c1ccccc1-c1ccccc1C(=O)Nc1ccc(F)cc1	-1	i	5	-1	2	-6	-18	-16
O=C(/C=C/Nc1cccc(C(F)(F)F)c1)c1ccco1	-2	i	-6	-1	5	2	6	·
CC(NCCOc1ccccc1F)C(=O)Nc1ccc(S(N)(=O)=O)cc1 (stereo unspecified)	-4	i	0	1	7	-10	-12	-2
Cc1cc(OCc2ccc(C(=O)Nc3ccc(C(=O)O)cc3)o2)ccc1Cl	-4	i	0	1	-9	14	12	-19
Cc1c(-n2c(SCC(=O)O)nnc2-c2ccccc2Cl)c(=O)n(-c2ccccc2)n1C	-7	·	-34	2	0	10	-17	-14
Cc1cc(S(=O)(=O)NC(C)c2nnc3ccccn23)ccc1Br (stereo unspecified)	·	·	1	-2	5	·	-6	-10
CC(=O)C1=C(C)Nc2ncnn2C1c1ccc(F)cc1 (stereo unspecified)	4	i	3	1	1	-2	-30	-18
CCCn1nc(NC(=O)c2ccco2)c2cc3cc(C)ccc3nc21	-2	·	-11	3	1	11	8	-10
CCNC(=O)NC(=O)CSc1nc2ccccc2n1CCOC	-4	i	·	-4	0	-13	-21	-1
CCOCCCNC(=O)c1ccc(Cn2c(=S)[nH]c3c([nH]c4ccc(OC)cc43)c2=O)cc1	4	i	15	1	1	-3	9	·
O=C(Nn1cnc2ccccc2c1=O)c1cccc(Cl)c1	2	i	3	2	3	-6	·	·
Cc1ccc(NC(=O)CCN2C(=O)c3ccccc3S2(=O)=O)cc1C	·	i	0	2	4	·	-8	6
CN(C)/C=C/C(=O)c1ccc(F)cc1F	-1	i	-10	2	3	-7	-8	·
COc1cc(C(=O)c2nccc3cc(OC)c(OC)cc23)c([N+](=O)[O-])cc1OC	4	i	2	10	-7	-8	6	·
Cc1ccc(C)c(-n2c3nc(=O)[nH]c(=O)c-3cc3cc([N+](=O)[O-])ccc32)c1	?	·	·	-7	-9	-7	36	5
O=C(CN1CCN(C/C=C/c2ccccc2)CC1)Nc1cc([N+](=O)[O-])ccc1Cl	-2	i	-3	2	2	6	12	3
CC(CCN1C(Nc2ccccc2)=NC[C@@H]1Cc1ccccc1)c1ccccc1 (stereo partly specified)	-6	i	-10	5	-2	0	6	12
CSc1nc(-c2ccccc2)nn1C(=O)c1ccco1	-6	i	1	-10	-2	-2	-12	-7
COc1ccc(Cl)cc1NC(=O)CN1C(=O)NC(Cc2c[nH]c3ccccc23)C1=O (stereo unspecified)	·	·	?	2	-3	·	-2	·
Cc1ccc(C(=O)NCCN2CCOCC2)cc1C	-9	i	1	-2	-2	4	-5	-20
COc1ccc(NC(=O)CN2CCN(c3ccccc3Cl)CC2)cc1	4	i	·	1	4	4	12	-9
CCN(Cc1ccncc1)C(=O)c1cc(COc2ccc(F)cc2Cl)on1	3	i	10	-1	-11	-1	19	-13
Continuation.
SMILES	eIF4H inh	Rce1 inh	HIV Env fusion	MT1-MMP act inh	MT1-MMP act inh RFP	PABP FP inh	CSC inhib	Yeast UUG start	others
Cc1ccc([N+](=O)[O-])c(OCCn2cnc3ccccc32)c1	-6	i	11	-5	-12	-1	-6	·
Cc1ccc(-c2nnn(CC(=O)N(c3cccc(F)c3)C(C(=O)NC3CCCC3)c3ccncc3)n2)o1 (stereo unspecified)	5	i	4	-1	0	-5	2	0
C=CCOn1c(=O)c(-c2ccc(OC)cc2)[n+]([O-])c2ccccc21	-2	i	·	-3	4	-1	6	-16
O=C1NC(=O)/C(=C\c2cn(CC(=O)N3CCOCC3)c3ccccc23)S1	-11	i	-5	6	1	-9	·	-23
CCc1ccc(NC(=O)C2CCN(S(=O)(=O)c3c(C)[nH]c(=O)[nH]c3=O)CC2)cc1	2	i	·	1	2	1	-7	-27
CCOc1cc(S(=O)(=O)N2CCN(CC)CC2)ccc1Cl	-4	i	·	3	4	13	-10	-4
O=c1[nH]c2ccc(Cl)cc2c(=O)n1Cc1ccco1	-4	i	·	1	2	-3	-10	-21
COc1ccc(CN2CCNC(=O)C2CC(=O)N(C)Cc2ccon2)c(F)c1 (stereo unspecified)	-4	·	5	-2	3	-7	-2	-13
NS(=O)(=O)c1ccc(Sc2nc3ccccc3s2)c([N+](=O)[O-])c1	5	i	73*	13	-5	1	42	-3
COc1ccc(-c2cc3nc(C)cc(NCCO)n3n2)cc1	-3	i	·	4	4	-4	7	-15
COc1ccccc1C(=O)N(CCN(C)C)c1nc2cc(C)cc(C)c2s1	-3	i	12	-4	-1	3	5	·
Cn1ccnc1C(=O)c1cc(SCC(=O)NC2CC2)nc2ccccc12	-3	i	-11	3	4	18	-9	-15
CCCCC(=O)OCc1c(-c2cccc(OC)c2)ncc2ccccc12	·	·	-8	-2	-1	·	-2	-9
COc1ccc2nc(SCCOC(=O)Nc3ccc(Cl)cc3)nc(C)c2c1	-3	i	-5	11	-7	-4	39	·
O=C(COc1ccc(F)c(Cl)c1)Nc1ccc(N2CCOCC2)cc1	·	·	-22	-2	1	·	-5	-3
COc1ccc(C(CCN2CCOCC2)c2c(OC)cc(OC)c3c(-c4ccccc4)cc(=O)oc23)cc1 (stereo unspecified)	·	·	-31	0	-2	·	·	11
CC(=O)Nc1ccc(-c2nnc(SCc3ccc(C)cc3)n2C)cc1	3	i	8	-1	8	22	-17	-22
COc1ccc2oc(=O)c(-c3ccccc3C(=O)N3CCOCC3)cc2c1	45	i	8	0	4	-2	-13	-1
Cc1ccc(NC(=O)COC(=O)C2(CC(=O)NC(C)C)CCCC2)cc1C	·	·	-1	-1	-3	·	16	-8
CN(C(=O)COC(=O)COc1ccc(Cl)cc1)C1CCCCC1	-15	i	·	8	2	-6	-6	·
Cc1ccc(C23CC4CC(CC(CN)(C4)C2)C3)cc1	-1	i	38	-19	-8	-7	·	·
Cc1ccc(S(=O)(=O)N/N=C\c2ccccc2OCc2ccccc2)cc1	10	i	9	1	1	-6	·	-3
Cc1cc(C)c(-c2csc(NC(=O)c3n[nH]c(=O)c4ccccc34)n2)c(C)c1	1	i	·	5	-20	-8	·	·
O=c1c(=O)n2c(nn1Cc1ccc(F)cc1)sc1ccccc12	0	i	3	0	2	7	-12	-13
COc1ccc(-c2noc(C3CCCN(C(=O)Nc4ccccc4F)C3)n2)cc1 (stereo unspecified)	-6	i	-16	2	-4	10	-4	·
COc1ccc(CCNC(=O)c2cccc(S(=O)(=O)N3CCCCC3)c2)cc1	0	i	11	1	-7	0	-13	-7
COc1ccc(C(=O)N/N=C\C(C)=C\c2ccccc2)cc1OC	·	i	2	5	-3	·	45	7
C[C@H]1CNC(=O)c2c(C(=O)NC3CCN(C(=O)OC(C)(C)C)CC3)ncn21	·	·	29	4	6	·	·	1
COc1ccccc1NC(=O)CSc1nnc(-c2ccncc2)o1	9	i	11	-2	-2	14	17	-1
CC(C)CCNc1nc(-c2ccco2)c2c(c1C#N)CCCC2	15	i	·	-7	-1	13	80*	-21
O=C(c1ccco1)N1CCN(CC(O)COc2ccc(Br)cc2)CC1 (stereo unspecified)	2	i	16	3	0	8	-4	8
